Vaccinia mCherry: vaccinia inhibition (mCherry reporter); AID 720579; Vaccinia virus mCherry reporter infection, fluorescence; about a quarter of the inactives have no number; actives 0.63% (n = 310,000); Potency, µM (top dose mostly 36.5 µM), for the others: at the top dose activity change, negative = inhibition, hits mostly inhibitors; active = well fitted inhibition curve with a large enough effect; inconclusive = small, poorly fitted or top-dose-only effect; inactive = no such curve, though single readings can be large or run the other way; tested in A549 cells; also: nearly all actives have a fitted effect of over 35% in size; inactives centre near -10
Vaccinia Venus: vaccinia inhibition (Venus reporter) | Vaccinia virus Venus reporter expression, fluorescence | Potency, µM (highest dose often 36.5 µM), for inactives: top-dose activity change, negative = inhibition, usual class: inhibitors | actives 0.46% (n = 330,000) | AID 720580; active means well fitted inhibition curve with a large enough effect; inconclusive means small, poorly fitted or top-dose-only effect; inactive means no such curve, though single readings can be large or run the other way; tested in A549 cells; also: nearly all actives have a fitted effect of over 30% in size; inactives centre near -10
* = called active by the depositor; i = inactive; ? = inconclusive; / = no result given; [ ] = remark or other dose. % is scaled to controls: 0 for no effect and ±100 for the full control effect; potency is read from the fitted curve at half-maximal effect. Hits appear at their usual frequency; overall some 0.87% were active at least once.

Every second line gives: Vaccinia mCherry	Vaccinia Venus
O=C(NCc1ccccc1)c1cccc(COc2cccc(Cl)c2)c1
→ -23.9%	-14.7%
COCC(C)N=C1NN=C(c2ccc(NC(C)=O)cc2)CS1 (stereo not drawn)
→ ?	-21.3%
COc1ccccc1/C=C1/C(=N/O)C2CCN1CC2
→ /	-26.8%
C(=C\c1ccccc1)/CN1CCN(C(c2nnnn2-c2ccc3c(c2)OCCO3)C2CC2)CC1 (stereo not drawn)
→ 7.4%	-6.5%
COc1ccc(NC(=O)CC(c2ccco2)C(C)C)cc1 (stereo not drawn)
→ i	-4.3%
CCn1cnc2c1c(=O)n(CC(=O)O)c(=O)n2Cc1ccccc1
→ -13.1%	4.8%
OC(c1ccc(F)c(F)c1)c1nc(-c2ccc(F)c(Cl)c2)cs1 (stereo not drawn)
→ 5.0%	-0.3%
O=C(OCc1ccccc1)c1ccc(-c2nnn(Cc3ccccc3F)n2)cc1
→ -15.2%	-18.2%
Cc1nnc(NC(=O)CSc2nc3c(c(=O)n(C)c(=O)n3C)n2C(C)C)s1
→ -2.8%	-7.3%
CC[C@]12c3[nH]c4cc(-c5ccco5)ccc4c3CCN1C(=O)[C@@H](CC(=O)NCc1cccc(C(F)(F)F)c1)C[C@@H]2C(=O)N1CCN(C(=O)c2ccco2)CC1
→ 12.6µM*	?
O=C1c2ccccc2C(=O)N1CCCc1nc2ccccc2c(=O)n1-c1cccnc1
→ /	-18.4%
CSCCC(NC(=O)c1cc([N+](=O)[O-])cc([N+](=O)[O-])c1)c1nc2ccccc2[nH]1 (stereo not drawn)
→ -6.6%	0.0%
O=C1NCCn2nc3ccccc3c21
→ i	-3.5%
Cc1ccc(-n2nnnc2SCC(=O)c2cc(C)n(-c3cc(C)on3)c2C)c(C)c1
→ ?	-15.4%
CN(c1ccc(O)cc1)c1nc(-c2ccccc2)cs1
→ -27.0%	?
COc1ccc(C(=O)OCCc2ccc(O)cc2)cc1
→ -18.3%	-18.2%
O=C(O)CNC(=O)c1ccc(N2CCOCC2)cc1[N+](=O)[O-]
→ -3.7%	3.1%
CN(C)C(=O)c1cc([N+](=O)[O-])cc([N+](=O)[O-])c1N(C)C
→ -19.0%	-18.2%
CCOC(=O)c1sc2nc(SCC(=O)N(CC)CC)n(CCCN3CCCC3=O)c(=O)c2c1C
→ -8.2%	-11.0%
CCN1/C(=C2\OC(=S)N(C)C2=O)Sc2ccccc21
→ -26.2%	-13.7%

5 compounds from above, arranged by molar mass, lowest first.
Every second line gives: Vaccinia mCherry	Vaccinia Venus
O=C1NCCn2nc3ccccc3c21
→ i	-3.5%
COc1ccc(C(=O)OCCc2ccc(O)cc2)cc1
→ -18.3%	-18.2%
COCC(C)N=C1NN=C(c2ccc(NC(C)=O)cc2)CS1 (stereo not drawn)
→ ?	-21.3%
O=C(NCc1ccccc1)c1cccc(COc2cccc(Cl)c2)c1
→ -23.9%	-14.7%
OC(c1ccc(F)c(F)c1)c1nc(-c2ccc(F)c(Cl)c2)cs1 (stereo not drawn)
→ 5.0%	-0.3%

Following part
Every second line gives: Vaccinia mCherry	Vaccinia Venus
CC(=O)Nc1ccc(S(=O)(=O)N2CCN(C(=O)c3ncoc3-c3ccccc3F)CC2)cc1
→ -7.2%	-8.0%
Cc1ccc(Cl)cc1N1CCN(S(C)(=O)=O)CC1
→ -3.5%	-15.4%
O=C(NCc1ccccn1)C1CCN(S(=O)(=O)N2CCCCC2)CC1
→ -2.1%	-8.8%
N#CC1(NC(=O)COC(=O)c2nccnc2N)CCCCC1
→ -8.4%	-2.9%
C=CCN(c1ccc(OC)cc1)S(=O)(=O)c1ccc(Cl)c(C(=O)OCC(=O)c2c(N)n(C)c(=O)n(C)c2=O)c1
→ -6.1%	-3.7%
CCOC(=O)C1CCCN(C(=O)c2ccc(C)c(NC(=O)C3=C(C)OCCS3)c2)C1 (stereo not drawn)
→ i[7.34 µM]	-10.3%[7.34 µM]
COc1cccc(C(=O)Nc2ccc(NC(=O)c3ccc(C(C)(C)C)cc3)cc2)c1
→ -3.5%	-17.1%
Cc1ccc(S(=O)(=O)N2CCc3ccccc3CC2)cc1
→ i	-11.0%
CCN(CC)CCOC(=O)C(O)(c1ccccc1)c1ccccc1
→ i	-17.3%
CC(=O)Nc1cccc(C(=O)OCC(=O)NC(=O)Cc2ccccc2)c1
→ i	-9.0%
CCN(CC)C(=O)C1=C(C)N(Cc2ccc(OC)cc2)C(=O)C(CC(=O)NCCN2CCOCC2)C1 (stereo not drawn)
→ i	-9.4%
C#CCSc1nc(-c2ccccc2)cc(-c2ccccc2)c1C#N
→ -5.6%	-5.1%
COc1ccc(-c2nnn(CC(=O)Nc3sc4c(c3C#N)CCCC4)n2)cc1
→ -19.4%	-23.7%
Cc1nn(-c2ccc(F)cc2)c(C)c1CN1CCN(CCC(C)C)C(CCO)C1 (stereo not drawn)
→ -7.9%	-10.0%
Cc1cc(F)ccc1NC(=O)C1CCCN(c2nnc(-n3c(C)ccc3C)s2)C1 (stereo not drawn)
→ -18.9%	-6.3%
CC(=O)Nc1cncc(-c2ccccc2CO)n1
→ 35.1%[activator]	-0.4%
COc1cccc(N2CC(NC(=O)c3ccc4ccccc4c3)CC2=O)c1 (stereo not drawn)
→ i	-6.7%
CCCCSc1nc2sc3c(c2c(=O)n1-c1ccc(OC)cc1)CCN(C)C3
→ ?	-16.1%
CCCS(=O)(=O)c1nc(S(=O)(=O)c2ccc(C)cc2)c(N2CCc3ccccc3C2)s1
→ -14.9%	-5.6%
COc1ccc(-n2nnc3c(SCC(=O)Nc4ccccc4F)ncnc32)cc1
→ -0.7%	-8.3%
Cc1nnsc1NC(=O)OCC(C)C
→ /	8.9%
Cc1ccc2nc(N3CCN(C(=O)c4ccco4)CC3)sc2c1
→ -14.2%	-11.1%
CCOCCc1nnc(NC(=O)C2CC(=O)N(CCc3ccc(F)cc3)C2)s1 (stereo not drawn)
→ ?	-4.4%
CCNC(=S)Nc1ccc(C)c(S(=O)(=O)Nc2ccccc2OC)c1
→ -8.5%	-7.3%
O=C(COC(=O)c1ccc(Cl)c(S(=O)(=O)N2CCCCC2)c1)NCc1ccco1
→ i	-17.1%
N[C@H](C(=O)O)c1ccc(C(=O)O)cc1
→ -2.0%	0.0%
Nc1nc(SC2c3cccc4cccc(c34)C2NS(=O)(=O)c2ccccc2)n[nH]1 (stereo not drawn)
→ -21.1%	-20.5%
CC(C)[C@H](N)c1nnc(SCC(=O)c2ccc(Cl)cc2)o1
→ -2.1%	-15.6%
CN(c1cccc(NC(=O)CN(c2ccc(F)cc2)S(C)(=O)=O)c1)S(C)(=O)=O
→ -17.7%	-24.7%
Cn1c(=O)c2c(nc(SCC(=O)Nc3ccc(OC(F)(F)F)cc3)n2Cc2cccc(C(F)(F)F)c2)n(C)c1=O
→ -20.2%[7.34 µM]	-12.1%[7.34 µM]
COc1ccc(C(=O)Nc2cc3c(cc2N2CCCC2)n(C)c(=O)c(=O)n3C)cc1OC
→ -10.8%	-6.9%
Cc1ccc2c(C)c(C(=O)NCC(c3ccc(Cl)cc3)N3CCOCC3)oc2c1 (stereo not drawn)
→ -11.2%	-17.0%
Cc1c(CCOC(=O)c2ccc(Cl)cc2Cl)sc[n+]1CC(=O)c1ccccc1
→ -14.9%	?
Cc1coc2cc3oc(=O)c(CCC(=O)NCCCn4ccnc4)c(C)c3cc12
→ -3.3%	-2.0%
CS(=O)(=O)N1CCN(c2ccc([N+](=O)[O-])c(NCCN3CCOCC3)c2)CC1
→ -21.3%	-2.7%
Cc1cc(NC(=O)COC(=O)Cn2[nH]c(=O)c3ccccc3c2=O)c([N+](=O)[O-])cc1C
→ -14.1%	-1.9%
COc1ccccc1CN(C)C[C@H]1OCc2cnnn2CCCC(=O)N([C@@H](C)CO)C[C@@H]1C
→ 2.9%	-5.5%
CC(=O)Nc1ccccc1NC(=O)c1ccc(C)c(C)c1
→ -7.9%	-3.2%
O=C1NC(=S)N/C1=C/c1cccc([N+](=O)[O-])c1O
→ -14.1%	-11.1%
O=C(CN1CCCCCC1)Nc1ccc(Cl)cn1
→ -8.3%	-5.1%
CC(C)(C)OC(=O)C1C(=O)CC(C)(O)C(C(=O)OC(C)(C)C)C1c1ccco1 (stereo not drawn)
→ -19.4%	-22.6%
CCOc1ccc(-c2nc(=S)[nH][nH]2)cc1
→ /	?
CC(NC(=O)NCC1CCCO1)(C(F)(F)F)C(F)(F)F (stereo not drawn)
→ /	-21.4%
O=C(CN1C(=O)NC2(CCOc3ccccc32)C1=O)NCCc1ccccc1 (stereo not drawn)
→ -16.0%	-6.0%
Cc1cc(NC(=O)CSc2nnc(C(F)(F)F)n2C)no1
→ -16.7%	-8.9%
CCc1cccc(NC(=O)CN2C(=O)CCc3cc(S(=O)(=O)N4CCOCC4)ccc32)c1
→ -13.0%	-2.6%
CC1=C(c2ccc(C(C)C)cc2)S(=O)(=O)N=C1N1CCN(c2ccc(F)cc2)CC1
→ ?	?
N#CC1=C(N)Oc2cc(Nc3ccccc3)ccc2C1c1ccncc1 (stereo not drawn)
→ /	?
CCC(=O)Nc1nnc(SCC(=O)c2ccc3c(c2)Cc2ccccc2-3)s1
→ 0.3%	5.8%
Cc1c(/C=N/NC(N)=O)c2ccccn2c1C(=O)c1ccc(F)cc1
→ -15.2%	-11.8%
CCOc1cccc2sc(N(Cc3cccnc3)C(C)=O)nc12
→ -7.7%	4.7%
COc1ccc2nc(NC(=O)c3nc(SCc4ccc(F)cc4)ncc3Cl)sc2c1
→ -4.3%	8.3%
COc1ccc(N(C)S(=O)(=O)c2cccc(C(=O)OC(C(=O)Nc3cc(C)cc(C)c3)c3ccccc3)c2)cc1 (stereo not drawn)
→ i	-11.3%
CCCCNC(=O)c1c[nH]c2ccc(S(=O)(=O)Nc3ccc(OCC)cc3)cc2c1=O
→ ?	-23.2%
COc1cccc(CN(C)C(=O)c2ccc(NS(=O)(=O)c3ccc(F)cc3)cc2)c1OC
→ -6.2%	-20.5%
CC(C)[C@H]1COCCS(=O)(=O)N1Cc1cccc([N+](=O)[O-])c1
→ ?	28.2µM*
CC1(C(=O)c2ccccc2)C2c3c(ccc4ccccc34)OC(=O)C21C(=O)N1CCOCC1 (stereo not drawn)
→ /	-12.4%
O=C(Nc1ccc2nc(-c3ccco3)c(-c3ccco3)nc2c1)N1CCN(c2ccccn2)CC1
→ i	-4.9%
CCOc1ccc(C(=O)NCCC(=O)N2CCC3(CC2)NCCc2[nH]cnc23)cc1OCC
→ i	-2.6%
CC(C)N1CC2(CC(c3ccc(Cl)cc3Cl)=NO2)CN1C(=O)c1ccc(C(C)(C)C)cc1 (stereo not drawn)
→ -10.6%	-17.2%

(list continues)
Every second line gives: Vaccinia mCherry	Vaccinia Venus
O=C(CN1C(=O)CSc2ccc(S(=O)(=O)N3CCCC3)cc21)NCc1ccc(Cl)cc1
→ -3.6%	-10.3%
COc1cccc(CN2CC(O)=C(c3nc(-c4ccc(Cl)cc4)cs3)C2=N)c1
→ /	-7.5%
CCSc1nnnn1-c1ccccc1
→ -7.6%[1.46 µM]	-23.6%
CC(C)NC(=O)c1nn(C)c2c1CS(=O)(=O)c1ccccc1-2
→ -18.7%	-6.2%
Brc1cccc(-c2cnco2)c1
→ -25.8%	-9.0%
O=C(CN1C(=O)c2cccnc2Sc2ccccc21)Nc1cc(F)ccc1F
→ -4.8%	-6.0%
N#Cc1c(N)c(C(=O)c2ccc(Br)cc2)n2c1CCC2
→ /	-13.8%
N#CN=c1snc(-c2ccccc2Cl)n1-c1ccccc1Cl
→ 11.2µM*	?
COc1ccc(C(C#N)(CC(=O)O)c2cnccn2)cc1OC (stereo not drawn)
→ i	-6.7%
COc1ccc(CCNC(=O)COC(=O)CCC(=O)c2cccs2)cc1OC
→ -18.9%	8.6%
Cc1nn(-c2ccccc2)c(Cl)c1/C=N/NC(N)=O
→ -10.0%	-7.7%
N#Cc1ccccc1NC(=O)CN1C(=O)NC2(CCCC2)C1=O
→ -11.3%	24.0%
C/C=C1\COC(C(=O)NCc2ccccc2)(C(F)(F)F)C=C1C=C(C)C (stereo not drawn)
→ -0.4%	-14.4%
COc1ccc2c(c1)CC(C1(O)C(=O)N(C)c3ccccc31)C2=O (stereo not drawn)
→ /	-11.5%
CCOC(=O)c1[nH]c2ccc(Cl)cc2c1NC(=O)/C=C/c1ccc2c(c1)OCO2
→ -9.5%	-1.0%
COc1ccc(-c2nc3ccccc3o2)cc1NC(=O)COc1c(C)cc(Cl)cc1Cl
→ -5.9%	-7.8%
COc1ccc(S(=O)(=O)N(C)C2CCN(C)CC2)cc1
→ i	5.2%
CCCCNC(=O)Cn1ncc2c(C)n(Cc3cccc(Cl)c3)c(C)c2c1=O
→ -7.1%	-15.2%
CN(C(=O)CSc1nc2c(c(=O)[nH]1)CCCC2)c1ccccc1
→ -9.3%	-1.6%
CCNC(=S)NNC(=O)c1cccc(Br)c1
→ -13.5%	-5.3%
COc1ccc2cc(C3=CCCC3(C)C(=O)O)ccc2c1 (stereo not drawn)
→ -26.1%	2.4%
COc1ccc(OC)c(CCNC(=O)C2=C(C)C(=O)OC23CCC(C)CC3)c1 (stereo not drawn)
→ -13.7%	-7.0%
CC(C(=O)NCc1ccco1)n1nc(-c2ccccc2)c2cc(Cl)ccc21 (stereo not drawn)
→ 25.8%	-8.8%
CCOc1ccc(NC(=O)c2cc3c(s2)-c2ccccc2OC3)cc1
→ -12.0%	-12.5%
CN(CC(=O)NCc1ccc(F)cc1)Cc1ccc(Br)cc1
→ ?	-13.3%

Source: PubChem
